Screening results deposited in PubChem by several laboratories.
Beta apoptosis – blocks beta cell apoptosis; protection from apoptosis, % (no concentration beside the values); INS-1E cytokine-induced death, ATP luminescence, 48 h; percent of positive-control rescue, neutral wells zero; AID 435005; hit rate 0.8% among 300,000;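 active means all replicates at 75% or more, or half of them and the mean; inconclusive means half reach 75% but not the mean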;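 further: 0% = cytokine-treated negative control wells and 100% = positive control rescue; higher means more ATP so stronger rescue from cytokine killing; wells of about 40 µL received 100 nL stock; the first replicate is given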
LANA-H2A inh – blocks KSHV LANA binding to histone H2A/H2B; cell-free LANA-H2A/H2B peptide, fluorescence polarization; hit rate 0.6% among 320,000; inhibition, % (no concentration beside the values); Q9QR71; AID 2629; in the data active means inhibition mostly above about 10%, no sharp cut-off; inactive means mostly below about 6.7%;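 further: stock transfer was 7.5 nL into about 10 µL; 0% = median of vehicle wells and 100% = median of positive control wells; one replicate is shown; the record names a cut of 25% in any replicate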
Calb FLC – affects C. albicans growth with fluconazole; hit rate 0.57% among 300,000; AID 1979; C. albicans CaCi-2 (fluconazole-resistant clinical isolate) + fluconazole, Alamar Blue growth, 48 h; growth inhibition, % (no concentration beside the values);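 active means most replicates above 75%; inconclusive means exactly half above 75%; inactive means most below 75%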;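 further: all wells also contain fluconazole at 8 µg/ml as a sub-toxic cotreatment; 0% = median of DMSO wells and 100% = median of geldanamycin control wells; wells of about 8 µL received 7.5 nL stock; the first replicate is given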
Ecoli rRNA inh – inhibits bacterial ribosomal RNA function over humanized ribosomes; E. coli WT GFP vs humanized-ribosome RFP mutants, fluorescence, 24 h; stronger effect = lower value; DMSO median 0, no signal -100; GFP signal change (wild-type ribosome), % (no concentration beside the values); hit rate 1.6% among 350,000;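 active means significant combined selectivity score with lowered wild-type GFP, culture density cut under 30%, mutant RFP and density less affected; inactive means any of these conditions unmet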; further: one replicate is shown; some compounds called inactive have numbers as strong as hits
T cruzi repl – blocks replication of Trypanosoma cruzi. T. cruzi beta-gal in NIH3T3, luminescence, 90 h. inhibition, % (test concentration not listed). hit rate 1.4% among 300,000. AID 1885;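 active means mean inhibition across valid replicates above about 55%, limit read from the data; inconclusive means mean below that limit but half or more replicates reach it; inactive means mean below it, under half of replicates reach it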;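 further: signal also drops with host cell toxicity which is not excluded here; 0% = plate median of DMSO wells and 100% = zero luminescence signal; higher percent means less beta-gal luminescence so fewer parasites; stock transfer was 50 nL into about 50 µL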
Beta2AR agonist – activates human beta-2 adrenergic receptor causing internalization | P07550 | Am2.2-beta2AR cells, FAP receptor internalization, flow cytometry; reference of the scale not given here | response, % (concentration not given with the values) | hit rate 0.43% among 340,000;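 active means response above a set limit, near 3 SD of response in nonfluorescent compounds, cut at about 42% in these data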;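 further: stock transfer was 100 nL into about 11 µL; a reference agonist was the positive control; negative values mostly stem from fluorescent compounds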
Target sequence (P07550 whole entry, looked up): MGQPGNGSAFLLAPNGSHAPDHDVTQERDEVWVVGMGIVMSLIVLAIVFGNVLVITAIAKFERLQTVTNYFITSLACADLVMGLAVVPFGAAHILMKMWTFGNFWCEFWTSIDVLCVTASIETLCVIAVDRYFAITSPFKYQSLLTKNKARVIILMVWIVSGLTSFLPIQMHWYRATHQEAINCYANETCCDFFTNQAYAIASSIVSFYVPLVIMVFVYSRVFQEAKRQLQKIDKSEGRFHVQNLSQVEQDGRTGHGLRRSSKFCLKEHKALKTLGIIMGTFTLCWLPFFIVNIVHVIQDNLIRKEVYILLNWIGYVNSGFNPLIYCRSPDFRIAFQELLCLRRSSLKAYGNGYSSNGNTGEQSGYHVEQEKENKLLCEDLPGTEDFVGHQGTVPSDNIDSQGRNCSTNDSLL
ALR H2O2 inh – human ALR oxidase inhibition via reduced H2O2 | P55789 | purified ALR, DTT oxidation, H2O2 HRP-luminol luminescence | inhibition, % (no concentration beside the values) | hit rate 3.8% among 290,000 | AID 485317;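 active means mean and each replicate at 75% or more; inconclusive means only one of the two met; inactive means neither met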;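 further: stock transfer was 7.5 nL into about 7.5 µL; 0% = neutral wells and 100% = wells with inactivated enzyme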
Target sequence (P55789 whole entry, looked up): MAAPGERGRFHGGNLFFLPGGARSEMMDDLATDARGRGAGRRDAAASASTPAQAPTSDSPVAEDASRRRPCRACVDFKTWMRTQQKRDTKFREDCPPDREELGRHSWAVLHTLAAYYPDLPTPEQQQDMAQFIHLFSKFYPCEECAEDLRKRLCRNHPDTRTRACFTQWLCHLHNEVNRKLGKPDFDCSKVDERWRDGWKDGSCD
A1 inh – inhibitors of the anti-apoptotic protein A1, read as caspase activation; caspase activation, % (test concentration not listed); hit rate 0.066% among 330,000; AID 2462; MEF A1-2A-BIM cells, Caspase-Glo 3/7 luminescence, 3 h; percent of clofoctol response, vehicle zero;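 active means over half of replicate activation scores above 10%, or exactly half above 10 with the replicate mean above 10; inconclusive means replicate mean below 10 yet half the replicates above 10; inactive means over half of replicates below 10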;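 further: wells of about 30 µL received 50 nL stock; many hits fall short of the cut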
Ecoli rRNA inh OD600 – also measured in Ecoli rRNA inh; calls as there; OD600 change, %; measured here: OD600 growth;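 optical density of the mix in the first replicate; 0 = DMSO median and -100 = no signal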
Ecoli rRNA inh RFP – recorded beside Ecoli rRNA inh, whose call it bears; RFP signal change, %; measured here: RFP humanized mutant strains;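 first replicate; 0 = DMSO median and -100 = no signal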
Active calls of the source: *; ? = inconclusive; / = not tested or not shown. An excerpt (hit frequency here may not be typical).

structure	Beta apoptosis	LANA-H2A inh	Calb FLC	Ecoli rRNA inh	Ecoli rRNA inh OD600	Ecoli rRNA inh RFP	T cruzi repl	Beta2AR agonist	ALR H2O2 inh	A1 inh
NCCCCCC(=O)OC1N=C(c2ccccc2Cl)c2cc(Br)ccc2NC1=O (configuration not stated)	2	1.1	-12	-31	-32	-2.5	0	4	-3	0.0
CC12CN3CN(C1)CC(c1ccccc1)(C3)C2=O	1	0.0	-7	/	/	/	-18	0	-6	0.0
CN(C)C(=O)Oc1cccc(NC(=O)c2ccccc2C(F)(F)F)c1	-1	-4.0	-6	0	3	0.1	11	1	5	0.3
C[C@]12CC[C@H](O)CC1C(=O)CC1C2CC[C@@]2(C)C1CC[C@@H]2O (some centres not stated)	-1	-3.0	/	3	13	3.2	/	-6	2	0.1
CCC(=O)Nc1ccc(N2CCN(CC)CC2)c(Cl)c1	-6	4.1	-4	/	/	/	0	-10	-14	0.6
COP(=O)(CC(=O)O)c1ccccc1 (configuration not stated)	-2	-1.2	1	/	/	/	-30	4	3	-0.3
O=c1[nH]c2ccccc2o1	0	-1.0	/	7	10	1.9	/	3	0	-0.3
C[C@@H]1C(=O)O[C@@H]2[C@H](O)C34[C@@H]5OC(=O)C3(O[C@H]3OC(=O)[C@H](O)C34[C@H](C(C)(C)C)[C@H]5O)[C@@]12O (some centres not stated)	-1	-1.4	-1	8	5	4.8	0	16	-3	1.5
COc1ccc(CNCCc2c[nH]c3ccccc23)c(OC)c1OC	-4	1.4	-1	4	-4	-2.2	11	11	1	0.2
Cc1ncc(CN2CCCC(C(=O)c3ccc(C(C)(C)C)cc3)C2)s1 (configuration not stated)	54	1.6	1	-32	-42	-5.1	-4	2	-8	-0.9
Brc1cccc(CNCCc2ccc3c(c2)OCO3)c1	-1	3.4	-26	-4	-13	-1.4	?	-6	-15	-0.4
CCN1C(=O)C(=C/C=C/c2ccco2)C(=O)N(CC)C1=S	2	-8.2	/	3	3	68	-13	-3	8	-0.1
Clc1ccc(C(c2ccc(Cl)cc2)n2cc[n+](CC(OCc3ccc(Cl)cc3Cl)c3ccc(Cl)cc3Cl)c2)cc1 (configuration not stated)	121*	-28	/	/	/	/	/	-49	-5	0.0
CN(C)C(=O)Oc1noc2cc(Cl)ccc12	-11	-2.0	-35	28	28	-0.1	15	-2	-4	0.1
Cc1cc(C)cc(OCCOc2cccc(C=C3C(=O)NC(=O)NC3=O)c2)c1	-7	-1.4	6	-9	-1	-2.8	-21	5	-2	-0.7
C=C1C(=O)O[C@@H]2C[C@@H](C)[C@@H]3C=CC(=O)[C@@]3(C)[C@@H](O)[C@H]12	112*	-9.3	/	-8	7	9.9	43	40	56	1.1
O=C1NC(=O)N(Cc2ccccc2)C(=O)/C1=C/c1cnn(-c2ccccc2)c1	1	1.7	-7	/	/	/	-39	/	0	0.0
Cc1ccccc1N1C(=O)CC(=O)NC1=O	-2	-5.1	8	/	/	/	-7	-3	2	-0.4
CCOC(=O)C1=C(C)OC(N)=C(C(=O)OCC)C12C(=O)Nc1ccc(Br)cc12 (configuration not stated)	-7	-1.0	-6	/	/	/	0	-2	-16	1.1
CCN1C[C@@]2(COC)C3[C@@H](OC)[C@H]4[C@@H]1[C@@]3(C1C[C@H]3[C@H](OC(C)=O)C1[C@]4(OC(C)=O)C[C@H]3OC)[C@@H](OC)C[C@H]2OC(C)=O (some centres not stated)	3	3.7	2	/	/	/	-2	/	1	-0.5
CCOCCCn1c(N)c(C(=O)Nc2sc3c(c2C(=O)OC)CCCC3)c2nc3ccccc3nc21	/	4.0	4	/	/	/	7	-2	-1	0.4
Cc1ccc(CN2CCN(Cc3ccccc3F)CC2)cc1	-7	-1.5	-4	4	4	1.5	42	4	-3	-0.7
Cc1cc(N2CCCCC2)ccc1C=C1C(=O)N(C)C(=S)N(C)C1=O	/	3.6	-4	/	/	/	4	-6	90*	-0.7
CCCNC(=O)c1c(N)n(Cc2ccc3c(c2)OCO3)c2nc3ccccc3nc12	7	2.2	33	/	/	/	39	4	-23	-1.0
Cc1nonc1OCCNc1ccc([N+](=O)[O-])c2cccnc12	/	0.0	11	/	/	/	5	8	-3	0.1
Cc1cc(OC(=O)N(C)C)nc(SCc2c(Cl)cccc2Cl)n1	2	-1.9	-14	-18*	13*	-6.4*	40	5	-5	-0.8
CC(C)(C)c1ccc(O)c(CN2CCN(c3ccccc3)CC2)c1	6	0.1	1	/	/	/	-2	-5	40	0.2
COC(=O)C1=C(c2ccc(F)cc2OCc2ccccc2)C[C@@H]2CC[C@H]1N2C(=O)NC1CCCCC1	20	-0.4	/	7	6	0.6	/	-2	-4	0.8
COC(=O)C1=C(c2ccc(-c3ccccc3)c(F)c2)C[C@@H]2CC[C@H]1N2C(=O)NCC1CC1	51	0.5	/	4	5	-4.0	/	6	-3	0.5
CCCCn1c(C)c(C(=O)O)c2cc(OC)c3ccccc3c21	-2	2.6	1	-8	0	-0.5	13	3	12	0.6
N#CCN1CCN(c2ccc(C(F)(F)F)cc2)CC1	-7	1.1	-11	/	/	/	-8	-1	1	-0.3
O=C1NC(c2cccnc2)Nc2sc3c(c21)CCCC3 (configuration not stated)	-7	1.7	64	/	/	/	-9	-5	/	-0.3
O=c1[nH]c(=O)n(CCC2=CCCCC2)c(O)c1C=NCCN1CCNCC1	-1	-1.8	0	/	/	/	-25	1	17	1.1
Cc1ccc(-n2c(O)c(C=NCCN(C)C)c(=O)[nH]c2=O)cc1	-6	-2.1	?	-3	2	-0.1	22	-6	12	0.9
O=C(Nc1ccc(Cl)cc1C(=O)c1ccccc1)c1ccco1	/	-1.4	14	/	/	/	0	9	-5	0.7
C[C@]12CC[C@H](O)C[C@@H]1CC[C@@H]1[C@@H]2CC[C@]2(C)[C@@H](C(=O)O)C[C@@H]12	-2	3.0	-19	-6	-8	-4.2	-11	3	3	0.3
Cn1ccnc1P(=S)(c1nccn1C)c1nccn1C	0	6.0	0	9	13	2.5	-22	4	-2	-0.3
CCCCn1c(O)c(C(C)=NC(Cc2c[nH]c3ccccc23)C(=O)OC)c(=O)[nH]c1=O (configuration not stated)	-1	-0.2	-5	/	/	/	-26	11	-5	-0.4
Clc1cc(Cl)c(-c2cc(Cl)c(Cl)cc2Cl)cc1Cl	-5	-54	/	8	4	3.4	/	-9	-7	0.2
CC(Cc1ccccc1)N1C(=O)c2ccccc2C1=O (configuration not stated)	0	-15	6	-9	-1	1.4	-5	-4	-6	0.0
CCCCn1c(O)c(/C=N/NC(=O)c2ccncc2)c(=O)[nH]c1=S	-5	2.3	-1	13	13	57	-9	-1	99*	-1.6
NNC(=O)c1nc[nH]c1C(=O)Nc1ccc(Cl)cc1C(=O)c1ccccc1	-2	-0.9	-4	-5	7	-1.6	-1	4	-14	0.0
CCCCOc1ccc(CN2CCN(CCO)CC2)cc1	-7	2.0	2	/	/	/	-5	-10	-1	-0.2
Cc1nc2cc([N+](=O)[O-])ccc2c(=O)n1-c1cccc(Br)c1	-1	-0.1	14	-4	0	-3.5	38	6	-21	-0.6
N#Cc1ccc(/C=C/C(=O)O)cc1	-2	-5.9	-1	1	6	-2.1	-8	-4	-1	0.2
Cc1nn(Cc2ccccc2)c(C)c1C(=O)NC1CCCc2ccccc21 (configuration not stated)	4	-5.9	-19	-8	-2	-6.5	-1	10	3	0.2
O=[N+]([O-])c1ccc(NC2CCCC2)c2ccncc12	4	0.7	-10	/	/	/	7	12	-22	0.2
CN(C)C(CNC(=O)Cc1c(Cl)cccc1Cl)c1ccccc1 (configuration not stated)	-1	-1.1	-27	8	-8	-0.3	0	4	-15	-0.1
CC(=NCC1CCCO1)c1c(O)n(C)c(=O)n(C)c1=O (configuration not stated)	8	-0.1	11	/	/	/	-3	-7	-5	0.6
CC12CN3CC(C)(CN(C1)C31CCSCC1)C2=O	-4	3.3	9	/	/	/	-6	-5	-6	-0.7
O=C1NC(=O)N(CCC2=CCCCC2)C(=O)/C1=C\c1cccs1	-9	4.4	0	/	/	/	-8	7	71	0.1
CN1CCN(c2nc3ccccn3c(=O)c2C=C2C(=O)N(C)C(=O)N(C)C2=O)CC1	-4	0.5	12	/	/	/	20	9	9	-1.1
O=C(C1CCC(=O)N1Cc1ccc(F)cc1)N1CCC2(CC1)OCCO2 (configuration not stated)	-11	-12	3	/	/	/	-5	-9	/	0.4
CCCC(C)C1(CC)C(=O)NC(=Nc2ccccc2OC)NC1=O (configuration not stated)	4	-2.7	-8	/	/	/	1	11	-17	-0.7
CN(C)C(=O)Oc1c(Cl)cc(Cl)c2cccnc12	-8	1.4	-13	1	3	-0.8	-7	-7	-2	-0.1
CN1C(=O)N(C)C(=O)C2(Cc3cc(NC(=O)c4ccc(F)cc4)ccc3N3CCCC32)C1=O (configuration not stated)	-8	-2.4	3	1	6	5.3	12	3	-16	-0.4
COc1ccc(C)cc1NC1=NCCCS1	-1	0.7	-3	22	0	0.2	-5	7	/	1.7
C[C@]12CCC3C(CC[C@H]4C[C@@H](O)CC[C@]34C)C1[C@H]1CN=N[C@H]1[C@@H]2O (some centres not stated)	0	4.0	/	3	2	6.9	/	10	3	0.7
S=C(NCCc1ccccc1)NCCc1cnc[nH]1	-4	15	-3	4	5	5.1	34	2	31	-0.1
O=C(NCCCn1ccnc1)C(Cl)(Cl)Cl	-6	2.8	-7	6	10	0.7	-21	-4	-5	-0.4
C[N+](C)(C)c1ccccc1	2	-3.1	/	15	13	2.0	-5	-7	0	0.3
